Screens from PubChem.
SMN2 splice up: SMN2 splice variant enhancement; HEK293 SMN2-luciferase splicing reporter, luminescence, 30-36 h; Potency, µM (top dose mostly 46.1 µM), for inactives: top-dose activity change, positive = activation, actives largely listed as activators; actives 2.8% (n = 210,000); note: % of control where 0% means no effect; nearly all actives have a fitted effect of over 55% in size
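HEK293 cells carry an SMN2 […]–luciferase reporter in which exon 7 inclusion puts luciferase in frame. Cells were plated 10-12 h before compound addition, then incubated 30-36 h at 37C. ONE-Glo luminescence was read; sodium butyrate at 4.5 mM final served as control.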
KinaseGlo FLuc: blocks Kinase-Glo luciferase, a counter-screen artifact; Q27757; Kinase-Glo luciferase, ATP luminescence, 8 min; Potency, µM (doses to about 38.3 µM), for inactives: top-dose activity change, negative = inhibition, hits mostly inhibitors; actives 0.28% (n = 200,000); AID 1379; note: % is set by controls: 0 for no effect and ±100 for the full control effect; nearly all actives have a fitted effect of over 60% in size
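Compound is pinned into ATP-containing buffer (10 uM ATP, imidazole pH 7.2, 7 mM MgCl2). Kinase-Glo luciferase reagent is then added. Light output is recorded following an 8-min room-temperature incubation.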
Epigenetic derep: epigenetic control regulation, reporter derepression; murine LDR cells, GFP reporter derepression, 30 h; Potency, µM (titrated, usually from 53.9 µM), for inactives: at the top dose GFP activation, hits mostly activators; actives 0.2% (n = 280,000); note: % of control where 0% means no effect; nearly all actives have a fitted effect of over 60% in size
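In this reporter-derepression format, murine cells bearing a silenced integrated CMV-GFP locus incubate with test compound (30 h, 37 C), then are washed and imaged; fluorescent objects of 20–120 um count as induced cells.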
IMPase Li cell: cell-permeable IMPase inhibitors with lithium potentiation; CHO-M1 cells, IP1 TR-FRET (IP-One), carbachol + lithium; Potency, µM (series often up to 59.4 µM), for inactives: at the top dose activity, negative = IMPase inhibition, actives largely listed as inhibitors; actives 0.35% (n = 210,000); AID 1457;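 note: IP1 builds up when IMPase is blocked and the TR-FRET signal falls; plate controls were basal vehicle for no effect and high inhibitor control for full effect; nearly all actives have a fitted effect of over 50% in size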
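CHO-M1, 2000 cells/well, 16–30 h culture; cpd + low Li+, 30 min 37C; lysis with d2-IP1/Eu-anti-IP1 Ab, 10 min RT; TR-FRET 665/620 ratio and 620 channel; AC50 via Hill.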
GoLoco inh red: inhibitors of human Gai1-RGS12 GoLoco interaction (red fluorophore); Gai1:RGS12 GoLoco peptide FP, rhodamine, 10 min; AID 880; Potency, µM (series often up to 61.6 µM), for the others: top-dose activity, negative = inhibition, usual class: inhibitors; P63096; actives 0.44% (n = 230,000); active = well fitted inhibition curve with a large enough effect, not every such curve was filed as active; inactive = no such curve, though single readings can be large or run the other way; note: % is set by controls: 0 for no effect and ±100 for the full control effect; nearly all actives have a fitted effect of over 30% in size; many of its hits are not listed in these tables
JMJD2E inh: inhibitors of human JMJD2E histone demethylase; actives 1.6% (n = 230,000); AID 2147; Potency, µM (highest dose often 57.1 µM), without a hit: at the top dose activity change, negative = inhibition, usual class: inhibitors; JMJD2E catalytic domain, FDH-coupled NADH fluorescence (FDH is formaldehyde dehydrogenase); active = well fitted inhibition curve with a large enough effect, not every such curve was filed as active; inconclusive = small, poorly fitted or top-dose-only effect, or another doubt; inactive = no such curve, though single readings can be large or run the other way;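 note: 0% = wells with enzyme and -100% = buffer wells without enzyme; nearly all actives have a fitted effect of over 50% in size; many of its hits are not listed in these tables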
Target sequence (B2RXH2 1-337 limits assumed): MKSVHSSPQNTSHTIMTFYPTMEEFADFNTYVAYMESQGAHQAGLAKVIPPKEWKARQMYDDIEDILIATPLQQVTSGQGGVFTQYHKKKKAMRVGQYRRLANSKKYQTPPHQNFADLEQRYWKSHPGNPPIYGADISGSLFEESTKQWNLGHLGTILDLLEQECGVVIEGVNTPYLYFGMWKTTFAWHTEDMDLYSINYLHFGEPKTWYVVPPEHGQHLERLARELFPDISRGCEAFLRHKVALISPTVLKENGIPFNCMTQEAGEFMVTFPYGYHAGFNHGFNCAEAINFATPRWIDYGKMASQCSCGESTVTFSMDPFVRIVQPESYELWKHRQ
RECQ1 helicase: inhibitors of human RECQ1 DNA helicase. actives 0.54% (n = 240,000). P46063. Potency, µM (series often up to 57.3 µM), inactives show at the top dose activity, negative = inhibition, actives largely listed as inhibitors. RECQ1 DNA unwinding, red fluorescence kinetic read;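 note: plate controls were vehicle for no effect and no enzyme for full effect; nearly all actives have a fitted effect of over 30% in size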
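50 nM RECQ1T1 preincubated 15 min with compound in Tris pH 8.0 buffer with MgCl2, DTT, Tween-20 and 2.5 ug/ml poly(dI-dC); started with 200 nM TAMRA/BHQ-2 forked duplex and 2 mM ATP. Unwinding read as fluorescence (525/598 nm), two reads 2 h apart.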
The depositor's hits bear a star; i = inactive; ? = inconclusive; [ ] = dose if it differs, or a comment. Unless noted, calls come from the whole dose curve; as a rule, active = well fitted curve in the direction sought with a large enough effect; inconclusive = small, poorly fitted or top-dose-only effect, or another doubt; inactive = no such curve, though single readings can be large; an effect the other way counts as inactive or inconclusive. Potency is the fitted concentration of half-maximal effect.

Order of results – Epigenetic derep, KinaseGlo FLuc, JMJD2E inh, IMPase Li cell, GoLoco inh red, RECQ1 helicase, SMN2 splice up
O=S(=O)(c1ccc(Br)cc1)N1CCN(c2cc(-c3ccccc3)nc3ncnn23)CC1
    -1.1%, 0%, ?, 24%[38.3 µM], -2%, -4%, 4%
N#C/C(=C/c1ccc(Cl)cc1)NC(=O)c1ccccc1
    1.3%, -2%, 2%, 33%[38.3 µM], -9%, -6%, 3%
COc1cccc(-c2nc(-c3ccccc3)no2)c1
    1.0%, -9%, 2%, 32%[38.3 µM], 5%, i, 11µM*
O=C(O)c1ccc(NS(=O)(=O)c2cccc3cccnc23)cc1
    2.9%, 1%, -4%, -12%[38.3 µM], 16%, -6%, -7%
CC(C)(C)n1nnnc1C(c1cccs1)N1CCCC2(CCCCC2)C1 (stereo not given)
    -3.7%, 0%, 1%, 16%, 5%, -2%, -20%
COC(=O)Cc1csc(/N=C/c2c(O)n(-c3cccc(C(F)(F)F)c3)c(=O)c3ccccc23)n1
    ?, 2%, -19%, -27%, 63%[activator], 1%, -32%
CC1=NN(c2ccccc2)C(=O)C1C(=O)c1ccc(Cl)cc1 (stereo not given)
    0.5%, -1%, -8%, -2%[38.3 µM], 4%, 2%, 17%
COCC(=O)Nc1sc2c(c1C(=O)OC)CCC(C)C2 (stereo not given)
    -1.1%, 2%, ?, 8%[38.3 µM], 3%, 3%, 16%

Reformatted: results already given.
molecule	Epigenetic derep	KinaseGlo FLuc	JMJD2E inh	IMPase Li cell	GoLoco inh red	RECQ1 helicase	SMN2 splice up
N#C/C(=C/c1ccc(Cl)cc1)NC(=O)c1ccccc1	1.3%	-2%	2%	33%[38.3 µM]	-9%	-6%	3%
COc1cccc(-c2nc(-c3ccccc3)no2)c1	1.0%	-9%	2%	32%[38.3 µM]	5%	i	11µM*

As entered above:
Reading of COc1cccc(-c2nc(-c3ccccc3)no2)c1 in GoLoco inh red: 5%
Reading of CC(C)(C)n1nnnc1C(c1cccs1)N1CCCC2(CCCCC2)C1 (stereo not given) in IMPase Li cell: 16%

Among those listed so far, these have sulfur:
Order of results – Epigenetic derep, KinaseGlo FLuc, JMJD2E inh, IMPase Li cell, GoLoco inh red, RECQ1 helicase, SMN2 splice up
O=S(=O)(c1ccc(Br)cc1)N1CCN(c2cc(-c3ccccc3)nc3ncnn23)CC1
    -1.1%, 0%, ?, 24%[38.3 µM], -2%, -4%, 4%
O=C(O)c1ccc(NS(=O)(=O)c2cccc3cccnc23)cc1
    2.9%, 1%, -4%, -12%[38.3 µM], 16%, -6%, -7%
CC(C)(C)n1nnnc1C(c1cccs1)N1CCCC2(CCCCC2)C1 (stereo not given)
    -3.7%, 0%, 1%, 16%, 5%, -2%, -20%
COC(=O)Cc1csc(/N=C/c2c(O)n(-c3cccc(C(F)(F)F)c3)c(=O)c3ccccc23)n1
    ?, 2%, -19%, -27%, 63%[activator], 1%, -32%
COCC(=O)Nc1sc2c(c1C(=O)OC)CCC(C)C2 (stereo not given)
    -1.1%, 2%, ?, 8%[38.3 µM], 3%, 3%, 16%

These rows are one share of the data; the hit share may differ from the screen's.
